Six1-Eya2 blk: qHTS Assay for Inhibitors of the Six1/Eya2 Interaction; Homeobox protein SIX1 (Homo sapiens) + Protein phosphatase EYA2 (Homo sapiens), …; AlphaScreen GST-Six1/His-Eya2 binding, biochemical; active compounds read low; control for the full effect not named in the record; activity change, % (test concentration not listed); 360,000 compounds, 0.56% hits; in the data active = activity change below about -65%; inconclusive = about -30% to -65%; inactive = above about -30%; also: % is scaled to controls: 0 for no effect and ±100 for the full control effect
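Compounds are tested against tagged Six1 and Eya2 proteins bridged by glutathione donor and nickel acceptor beads; after a one-hour incubation at 37 °C without light, AlphaScreen emission is recorded.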
D2 PAM: Beta-Arrestin HTS for Positive Allosteric Modulators of the Human D2 Dopamine Receptor: Potentiators; D(2) dopamine receptor (Homo sapiens), P14416; DiscoveRx D2 beta-arrestin cells, luminescence, 90 min; 100% = 57 uM dopamine signal; potentiation, % (test concentration not listed); 360,000 compounds, 0.23% hits; AID 624464, 2012; active = potentiation of 50% or more; inconclusive = 30% to 50%; inactive = 30% or less;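 also: compound concentration not given in the record; tested on top of an EC20 dose of dopamine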
Target sequence (P14416 whole entry, looked up): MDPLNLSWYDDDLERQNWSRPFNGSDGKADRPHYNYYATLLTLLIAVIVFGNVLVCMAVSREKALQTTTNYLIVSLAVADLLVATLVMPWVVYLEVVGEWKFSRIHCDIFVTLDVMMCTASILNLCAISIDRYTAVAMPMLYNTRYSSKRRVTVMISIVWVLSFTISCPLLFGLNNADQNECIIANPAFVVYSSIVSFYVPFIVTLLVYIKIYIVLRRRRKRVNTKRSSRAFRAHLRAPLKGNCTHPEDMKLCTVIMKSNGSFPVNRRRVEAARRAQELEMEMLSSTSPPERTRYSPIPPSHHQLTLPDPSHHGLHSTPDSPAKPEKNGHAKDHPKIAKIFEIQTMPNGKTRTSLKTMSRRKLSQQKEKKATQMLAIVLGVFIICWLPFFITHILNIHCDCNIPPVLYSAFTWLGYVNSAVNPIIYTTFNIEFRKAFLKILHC
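PathHunter D2 cells, attached overnight at 37 deg C, received compound in DMSO plus dopamine at EC20 (50 nM final) for 90 min at 37 deg C. Beta-arrestin recruitment was read as luminescence after 1 h with detection reagent at ambient temperature.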
TRPML1 agonist: qHTS for Agonists of the Human Mucolipin Transient Receptor Potential 1 (TRPML1); Mucolipin-1 (Homo sapiens), Q9GZU1; TRPML1-expressing cells, Ca2+ dye fluorescence, FDSS; host cell line not named in the record; reference of the full effect not given here; activation, % (test concentration not listed); 410,000 compounds, 0.12% hits; AID 624414, 2012; in the data active = activation above about 50%; inconclusive = about 30% to 50%; inactive = below about 30%; also: 0% is about no effect; the text of the record puts the active cut at 80%
Target sequence (Q9GZU1 whole entry, looked up): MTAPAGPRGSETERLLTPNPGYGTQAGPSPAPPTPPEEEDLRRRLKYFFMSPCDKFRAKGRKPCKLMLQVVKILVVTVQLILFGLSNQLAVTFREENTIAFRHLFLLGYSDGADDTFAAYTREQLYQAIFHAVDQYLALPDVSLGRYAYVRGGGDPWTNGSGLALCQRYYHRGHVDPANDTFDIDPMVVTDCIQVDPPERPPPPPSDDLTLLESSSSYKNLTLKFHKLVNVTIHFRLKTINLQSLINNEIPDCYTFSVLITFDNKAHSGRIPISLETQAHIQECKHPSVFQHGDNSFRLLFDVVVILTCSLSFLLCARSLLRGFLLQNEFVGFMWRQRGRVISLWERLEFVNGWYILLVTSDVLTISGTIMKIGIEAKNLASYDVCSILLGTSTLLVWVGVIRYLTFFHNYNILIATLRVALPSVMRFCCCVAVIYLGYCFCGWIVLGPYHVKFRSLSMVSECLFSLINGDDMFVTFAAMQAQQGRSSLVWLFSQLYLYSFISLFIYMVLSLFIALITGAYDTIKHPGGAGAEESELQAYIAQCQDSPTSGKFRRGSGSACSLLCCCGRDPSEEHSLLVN
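Kinetic FDSS Ca2+ read in Tet-induced TRPML1-DL cells (ABD Ca8 dye plus quencher, 45-90 min RT loading): baseline, then compound, then 110 s agonist window; EC80 agonist 54-4 at 4uM final added afterwards for a 110 s antagonist window.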
TRPML1 inh: qHTS for Inhibitors of the Human Mucolipin Transient Receptor Potential 1 (TRPML1); AID 624415, 2012; activity change, negative = inhibition, % (no concentration beside the values); 390,000 compounds, 0.02% hits; TRPML1-inducible cells, Ca2+ dye fluorescence, FDSS; active compounds read low; inhibition of EC80 agonist-evoked calcium signal; Mucolipin-1 (Homo sapiens), Q9GZU1; in the data active means activity change below about -50%; inconclusive means about -30% to -50%; inactive means above about -30%;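 also: stimulus is agonist 54-4 at its EC80 concentration; % is scaled to controls: 0 for no effect and ±100 for the full control effect; compound concentration not given in the record; the text of the record puts the active cut at -80%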
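Calcium fluorescence in TRPML1-DL cells induced overnight with Tet: a 110 s read after compound pin addition, then a 110 s antagonist read after challenge with 54-4 at 4 uM final (EC80).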
TRPV1 potentiator: HTS Assay for Compounds that Act as Potentiators of the Vanilloid Receptor 1. Transient receptor potential cation channel subfamily V member 1 (Homo sapiens), Q8NER1. 320,000 compounds, 0.02% hits. potentiation, % at 8.33 µM. AID 540277, 2011. TRPV1-expressing cells, Fluo-8 calcium influx, capsaicin EC20 potentiation; host cell line not named in the record; control for the full effect not named in the record; active means potentiation above 80%; inconclusive means 30% to 80%; inactive means below 30%; also: 0% is about no effect
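Fluo-8 calcium influx in TRPV1-expressing cells, kinetic read (ex 480/em 520 nm). Compound added and read 3 min for agonist activity, followed by capsaicin at EC20 final and 2 min further read for enhancement.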
CtBP-E1A inh: qHTS Assay for Inhibitors of the CtBP/E1A Interaction. CtBP / adenovirus E1A interaction (AlphaScreen). AlphaScreen GST-E1A/His-CtBP binding, 1536-well; active compounds read low; control for the full effect not named in the record. activity change, % (concentration not given with the values). 340,000 compounds, 0.49% hits. AID 651724, 2012; in the data active means activity change below about -65%; inconclusive means about -30% to -65%; inactive means above about -30%; also: % is scaled to controls: 0 for no effect and ±100 for the full control effect
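Protein mix (5X: 125 nM each GST-E1A, His-CtBP) was incubated with pinned compound 2 h at 37 deg C in dark, in 50 mM Tris pH 8.0 buffer with 300 mM NaCl. Glutathione donor and nickel acceptor beads followed; AlphaScreen signal read after 1 h.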
An asterisk follows results filed as active; u = inconclusive; x = no result given.

mol,Six1-Eya2 blk,D2 PAM,TRPML1 agonist,TRPML1 inh,TRPV1 potentiator,CtBP-E1A inh
Cc1ccc(S(=O)(=O)N2CCC(C(=O)NCCCN3CCOCC3)CC2)cc1C,6,3,0.0,-2,18,1
Cc1cccc(OCCCn2c(=O)oc3ccccc32)c1,2,3,1.7,-1,-8,12
CC(C)[C@@H]1NC(=O)c2cc([N+](=O)[O-])cc(I)c2NCCC[C@@H](C(N)=O)NC(=O)[C@H](CO)NC1=O,2,-1,-0.4,-14,0,8
Cn1c(=O)c2cc(NC(=O)NCCc3ccccc3)ccc2n1Cc1ccc(F)cc1,3,-3,0.6,-11,x,-5
Cc1cc(Br)ccc1NC(=O)CNC(=O)c1cnn(C)c1,1,2,0.0,-6,-2,x
O=C(NCCc1ccc(Cl)cc1)C1CCN(C(=O)c2sccc2-n2cccc2)CC1,-8,-18,4.3,56,4,-11
CC(CNc1nc2ccccc2n2cnnc12)c1ccccc1 (configuration not stated),-1,-10,2.0,0,-3,x
O=C(Oc1ccc(-c2ccccc2)cc1)N1CCOCC1,5,-1,0.1,-11,-18,6
CCOC(=O)C1=CN(Cc2cccc(Br)c2)S(=O)(=O)NC1C (configuration not stated),4,x,0.9,24,x,11
CCN(CC)C(=O)CN(c1cccc(OC)c1)S(=O)(=O)c1ccc(C)cc1,13,-13,0.8,3,1,-1
O=[N+]([O-])c1ccc(CN2CCSCC2)cc1,-15,-5,-0.6,14,-6,0
COc1ccc(N=Nc2ccc(N)nc2N)cc1,u,-7,2.0,-15,25,u
Cc1ccc(C(=O)NCCCn2ccnc2)cc1C,2,-3,3.4,-13,x,4
Cc1cc(Oc2ccc(C(C)(C)C)cc2)nc(N2CCOCC2)n1,6,-24,2.3,-2,-8,10
CC(C)(C)NC(=O)COC(=O)CCC(=O)c1cccs1,-1,2,0.0,-5,1,5
CC(=O)c1cccc(NC(=O)COC(=O)[C@@H](NC(=O)OCc2ccccc2)C(C)C)c1,2,-21,3.8,13,-1,5
OCCC1CN(Cc2ccc(F)cc2Cl)CCN1CCc1ccccc1 (configuration not stated),-2,-24,0.2,-3,-1,-8
CCCc1nc2cc(Cl)c([N+](=O)[O-])cc2o1,1,5,-1.0,-5,6,4
Cc1nc(SCC#N)c2c3c(sc2n1)CCC3,5,-18,2.5,-10,-16,-1
C=CCNC(=O)C(C)Sc1ccc(Cl)cc1 (configuration not stated),16,-5,-1.6,-9,-10,-2

Taken from above:
In Six1-Eya2 blk, O=C(Oc1ccc(-c2ccccc2)cc1)N1CCOCC1 reads 5
In Six1-Eya2 blk, Cc1cc(Oc2ccc(C(C)(C)C)cc2)nc(N2CCOCC2)n1 reads 6
In TRPML1 agonist, CCN(CC)C(=O)CN(c1cccc(OC)c1)S(=O)(=O)c1ccc(C)cc1 reads 0.8
In Six1-Eya2 blk, CCOC(=O)C1=CN(Cc2cccc(Br)c2)S(=O)(=O)NC1C (configuration not stated) reads 4

Just Six1-Eya2 blk and TRPML1 agonist, for some of the entries so far:
SMILES	Six1-Eya2 blk	TRPML1 agonist
OCCC1CN(Cc2ccc(F)cc2Cl)CCN1CCc1ccccc1 (configuration not stated)	-2	0.2
CCCc1nc2cc(Cl)c([N+](=O)[O-])cc2o1	1	-1.0
Cc1nc(SCC#N)c2c3c(sc2n1)CCC3	5	2.5
C=CCNC(=O)C(C)Sc1ccc(Cl)cc1 (configuration not stated)	16	-1.6

Later entries:
mol,Six1-Eya2 blk,D2 PAM,TRPML1 agonist,TRPML1 inh,TRPV1 potentiator,CtBP-E1A inh
COc1ccc(C)cc1N(CC(=O)NCCN1CCOCC1)S(=O)(=O)c1ccccc1,5,-1,-0.1,9,-16,4
COc1ccc(N(C)S(=O)(=O)c2cccc(C(=O)N3CCN(Cc4ccc5c(c4)OCO5)CC3)c2)cc1,-15,-12,0.1,2,10,0
CCOc1ccccc1OCCCC(=O)N1CCN(S(=O)(=O)c2ccc(C)cc2C)CC1,3,-2,1.6,-5,-1,-4
N/C(=N\OC(=O)CCC1CCCC1)c1ccccn1,14,0,0.9,14,-29,2
O=C(CN(Cc1ccccc1)S(=O)(=O)c1ccccc1)N/N=C/c1ccc([N+](=O)[O-])cc1,u,20,2.0,34,4,u
CC1(C)C(=O)Nc2ccccc2N1C(=O)COC(=O)c1cccnc1,3,-2,0.1,-18,3,1
CN(C)C(CNC(=O)Nc1cccc(Cl)c1)c1cccnc1 (configuration not stated),1,-24,3.8,9,20,7
O=C(CSc1nc(C2CCCCC2)n(-c2ccccc2)n1)NCCN1C(=O)CSC1=O,4,16,-1.3,15,-10,0
CCC(C)n1nnc2c(=O)oc3ccccc3c21 (configuration not stated),0,4,0.8,2,22,2
O=Cc1cn(CC(=O)N2CCCc3ccccc32)c2ccccc12,3,-5,-1.3,-1,1,2
O=C(CCNS(=O)(=O)c1ccc(Br)s1)Nc1ccc(Cl)cc1,3,-7,0.9,-1,16,7
CC(C)(C)NC(=O)C(c1cccs1)N(Cc1ccc(F)cc1)C(=O)c1csnn1 (configuration not stated),4,-14,0.7,7,-13,4
Cc1ccc(C)c(N2CCN(C(=O)c3ccc(Cl)c(NC4=NC5CS(=O)(=O)CC5S4)c3)CC2)c1 (configuration not stated),-4,-4,0.6,-13,-6,1
COC(=O)c1c(NC(=O)CCl)sc(C(=O)N2CCOCC2)c1C,6,-3,-0.2,-9,0,0
CC1(C)Cc2cccc(OCC(=O)OCC(=O)Nc3ccc(S(N)(=O)=O)cc3)c2O1,-2,1,-0.7,-15,x,-4
CCOC(=O)C1=CN(C)CCC1=O,7,-1,-0.6,15,x,6
Cc1c(C(=O)Nc2nccs2)oc2c(Cl)cccc12,-9,-6,-0.9,4,-5,1
CCc1sc(C(=O)Nc2ccc(OC)c(S(=O)(=O)N3CCOCC3)c2)cc1C,-1,2,0.0,-2,x,-2
COc1ccc2[nH]c(=O)c(CN(CC3CCCO3)C(=S)Nc3cccc(C)c3)cc2c1 (configuration not stated),4,-16,-0.8,-2,4,0
CCOC(=S)SCC(=O)Nc1nc(-c2ccc(Br)cc2)cs1,-16,-3,0.8,24,17,-6

Single records, from the list above.
`CCC(C)n1nnc2c(=O)oc3ccccc3c21` (configuration not stated) in the list: Six1-Eya2 blk: 0; D2 PAM: 4; TRPML1 agonist: 0.8; TRPML1 inh: 2; TRPV1 potentiator: 22; CtBP-E1A inh: 2
`O=C(CSc1nc(C2CCCCC2)n(-c2ccccc2)n1)NCCN1C(=O)CSC1=O` in the list: Six1-Eya2 blk: 4; D2 PAM: 16; TRPML1 agonist: -1.3; TRPML1 inh: 15; TRPV1 potentiator: -10; CtBP-E1A inh: 0
`CC1(C)C(=O)Nc2ccccc2N1C(=O)COC(=O)c1cccnc1` in the list: Six1-Eya2 blk: 3; D2 PAM: -2; TRPML1 agonist: 0.1; TRPML1 inh: -18; TRPV1 potentiator: 3; CtBP-E1A inh: 1

Following part
mol,Six1-Eya2 blk,D2 PAM,TRPML1 agonist,TRPML1 inh,TRPV1 potentiator,CtBP-E1A inh
C[C@H]1CN([C@@H](C)CO)C(=O)c2cccc(NS(=O)(=O)c3ccc(Cl)cc3)c2O[C@@H]1CN(C)CC1CCCCC1,-2,-5,0.2,1,x,4
CC(C)C1Oc2ccccc2N(CC(=O)N(Cc2ccccn2)CC2CCCO2)C1=O (configuration not stated),4,-14,-0.1,9,-2,5
Cc1cc(C)n(-c2cc(Oc3ccccc3)ncn2)n1,17,-13,1.7,0,-2,15
COC(=O)C1=CN(C2CC2)C=C(C(=O)OC)C1c1ccc(C(=O)OC)cc1,5,2,0.1,0,2,6
CC(C)(C)S(=O)(=O)c1cnc2c(-c3ccsc3)cnn2c1N,-2,-1,0.2,-6,u,3
CC(Sc1nc2ccccc2s1)C(=O)c1c(N)n(C)c(=O)n(C)c1=O (configuration not stated),-2,-2,0.4,1,0,x
CNS(=O)(=O)c1cccc(C(=O)OCC(=O)c2ccc[nH]2)c1,-3,1,-0.6,10,-9,10
CCc1nnc(NC(=O)CSc2nc(C3CCCCC3)nc3ccccc23)s1,3,7,0.7,-3,x,-5
C=CCn1c(SCC(=O)c2[nH]c(C)c(C(=O)OCC)c2C)nc2scc(-c3ccc(OC)c(OC)c3)c2c1=O,-5,1,-0.4,1,13,-5
N#Cc1ccccc1OCC(=O)NNC(=O)CNC(=O)c1cccc(Br)c1,-4,-13,0.3,-2,6,-16
C[C@H]1CN([C@@H](C)CO)S(=O)(=O)c2ccc(Br)cc2O[C@H]1CN(C)C(=O)c1cccnc1,-2,3,-0.3,-9,x,-1
CC(C)N1C(=O)CCC1C(=O)NCCc1ccccc1 (configuration not stated),3,-6,0.7,25,-10,7
O=C(NCCCCc1ccccc1)C1CC(c2ccccc2[N+](=O)[O-])=NO1 (configuration not stated),-1,-8,-0.1,4,-1,-1
CC(=O)Nc1ccc2nc(NC(=O)c3ccco3)sc2c1,-20,-1,-0.5,18,12,x
COc1ccc(C2C(C#N)=C(N)Oc3cc(C)n(CCN4CCOCC4)c(=O)c32)cc1OC (configuration not stated),7,-9,1.1,-4,0,-1
Cc1ccc(S(=O)(=O)c2nnn3c2nc(N2CCOCC2)c2ccccc23)cc1,2,-3,0.3,0,-14,-2
Cc1ccc(-c2nc3ccccc3s2)cc1S(=O)(=O)N1CCOCC1,-13,17,1.7,86,-8,-10
Cc1cc(C(=O)NC(C)c2ccncc2)no1 (configuration not stated),-6,11,0.2,4,4,-7
Cc1ccc(NC(=O)c2nsc(Cl)c2Cl)cc1,3,-9,0.8,33,-7,-2
Oc1cccc(/C=N\Nc2nncc(-c3ccccc3)n2)c1,-7,-5,1.6,-1,-12,x
C/C=C/c1ccc(OCCCCOc2ccccc2C(C)=O)c(OC)c1,14,-1,4.0,26,-5,3
COc1cc(OC)c(S(=O)(=O)N2CCCCC2)cc1S(=O)(=O)N1CCCCC1,3,-6,3.0,-6,-8,-1
COC(=O)c1sc2ccccc2c1-n1cccc1C(=O)C(=O)Nc1ccccc1,-22,-7,0.3,3,-5,-13
CC(=O)c1cccc(NC(=O)CN2CCc3cc4c(cc3C2)OCCCO4)c1,-15,-57,x,x,-3,-3
O=C(COC(=O)c1cccc(S(=O)(=O)NCc2ccccc2)c1)Nc1ccccc1OC(F)F,1,-6,3.7,-26,6,-4

Compound activity: PubChem BioAssay, National Center for Advancing Translational Sciences (NCATS)
